ugtP null kill: compounds lethal to S. aureus RN4220 ugtP deletion mutant. OD600 growth, 16 h; some inactives read as strong as hits. actives 0.54% (n = 330,000). AID 1259309. growth inhibition, % (no concentration beside the values);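 active means z-score under -3 and OD600 up to 0.15 on both plates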;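 further: plate controls were untreated wells for no effect and antibiotic for full effect; wells of about 80 µL received 100 nL stock; the first replicate is given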
Autofluor counter: counter-screen for toxin protease inhibitors: compound fluorescence; compound autofluorescence counterscreen, microsphere flow cytometry; hits give high values; AID 624483; fluorescence intensity (test concentration not listed); actives 3.1% (n = 360,000);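 active means at least 3 SD above the mean of all compounds, about 16000 in these data; inconclusive means too few beads counted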;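 further: 100 nL of 1 mM stock went into each well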
PrP 5UTR inh: inhibition of PrP 5' UTR reporter expression | cell-based PrP 5' UTR mRNA reporter, plate reader | inhibition, % (no concentration beside the values) | actives 0.35% (n = 340,000) | AID 488862;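 active means every replicate at 50% or more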;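 further: 0 = median of the neutral control wells; tested in H4 reporter cells; numbers are from one replicate; inactives centre near -14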
RN4220 kill: kills Staphylococcus aureus RN4220 | S. aureus RN4220 growth, OD600, 16 h | inhibition, % (test concentration not listed) | actives 0.33% (n = 330,000) | AID 1259311;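 active means z-score of -3 or lower and OD600 up to 0.18 on both plates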;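 further: plate controls were untreated cells for no effect and reference antibiotic for full effect; stock transfer was 100 nL into about 80 µL; one replicate is shown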
BJeLR viability: BJeLR cell viability loss; BJeLR (HRASV12) viability, CellTiter-Glo ATP luminescence, 48 h; reference of the scale not given here; actives 0.17% (n = 300,000); inhibition, % (no concentration beside the values); AID 1554;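 active means replicate mean above 50%; inconclusive means above 50% but judged a plate artefact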;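 further: 50 nL library stock added to about 25 µL; numbers are from one replicate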
Mtb hypoxia rep: reduces hypoxia-regulated biosensor signal in M. tuberculosis. M. tuberculosis hypoxia-regulated fluorescent reporter, fluorescence. actives 0.1% (n = 300,000). fluorescence inhibition, % (concentration not given with the values). AID 1159583;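 active means 35 to 45% if threefold the growth effect, above 45% if 1.5-fold the growth effect; inactive means the rest, general growth blockers included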;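 further: wells of about 50 µL received 100 nL stock; 0% = vehicle wells and 100% = reference inhibitor wells; whole bacteria with a GFP reporter of the hypoxia response; strong numbers were not always called active; many hits fall short of the cut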
Mtb hypoxia rep growth: second read-out of Mtb hypoxia rep, no call of its own (marks repeat the call); growth inhibition, %; measured here: M. tuberculosis growth (absorbance);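 0% = vehicle and 100% = reference antibiotic; read after six days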
Active calls of the source: *; ? = inconclusive; · = no result given.

SMILES | ugtP null kill | Autofluor counter | PrP 5UTR inh | RN4220 kill | BJeLR viability | Mtb hypoxia rep | Mtb hypoxia rep growth
CCCC(=O)Nc1cc(S(=O)(=O)N2CCOCC2)ccc1N1CCCCC1 | 4 | 3714 | -10 | 4.8 | · | -3 | 12
O=C1c2ccccc2C2(c3ccccc3)N1CCN2C(=O)C(Cl)(Cl)Cl (stereo not drawn) | 21 | 3813 | -31 | 6.6 | -1 | 17 | -1
COc1cc(C2C(C#N)=C(N)Oc3n[nH]c(-c4cccs4)c32)cc(OC)c1O (stereo not drawn) | 11 | 3681 | -11 | 13 | 1 | -8 | 4
O=C(CCc1ccc(S(=O)(=O)N2CCOCC2)cc1)Nc1cc(Cl)ccc1N1CCOCC1 | -3 | 3263 | -24 | -17 | 7 | 6 | 8
CCN=c1sc(C(=O)OC)cc(=O)n1CC | 0 | 4146 | -19 | 5.2 | 7 | 4 | -3
Nc1cc(OC(=O)c2ccccc2Br)nn1S(=O)(=O)c1ccccc1 | 10 | 3094 | -22 | 3.9 | -2 | 2 | 1
CC(C)(C)NS(=O)(=O)c1ccc(/C=C/C(=O)O)cc1 | 8 | 4010 | · | 4.8 | -6 | 7 | 12
CC(C)CCNC(=O)CC1C(=O)N(Cc2ccccc2)C(C)c2nc3ccccc3n21 (stereo not drawn) | -1 | 9538 | -37 | 5.5 | 2 | 16 | 7
CC(C)NCC#CCOc1ccc(Cl)cc1 | 9 | 3805 | -14 | 4.4 | 1 | 14 | 3
CN1C(=O)CC(Nc2cccc3cccc(N)c23)C1=O (stereo not drawn) | 4 | 4184 | -3 | -1.0 | -6 | 9 | -3
C=CCCC(Cc1ccc(F)cc1)C(=O)OCCNC(=O)C(CC=C)CC(=O)N(CCO)Cc1ccccc1 (stereo not drawn) | -2 | · | · | -2.5 | · | -4 | -5
O=C1Nc2cc(C(=O)NCCCN3CCCC3)ccc2S/C1=C/c1ccccc1F | -2 | 5131 | -7 | -3.4 | -8 | 10 | 16
CCOc1cc(C=O)cc(Br)c1OCC(N)=O | 9 | 2166 | -15 | -1.0 | 0 | 0 | 2
COc1cc(C=NNC(=O)c2cc(-c3ccccc3)sc2N)cc(OC)c1OC | -3 | · | · | -4.3 | · | -4 | -1
O=C(c1nc(SCc2ccc([N+](=O)[O-])cc2)n2ccccc12)C(F)(F)F | 0 | 6161 | -11 | 1.4 | 5 | 6 | 5
CN(CCc1cnn(C)c1)C(=O)CCc1nnc(CCCc2ccccc2)o1 | -2 | 3198 | -51 | 1.6 | 3 | -5 | -3
CCOC(=O)C(NC(=O)Nc1ccc(C(N)=O)cc1)(c1ccccc1)C(F)(F)F (stereo not drawn) | 6 | 2500 | -19 | 4.9 | -1 | -2 | 4
O=C(c1cn(-c2ccccc2)nc1-c1ccc(F)cc1)N1CCOCC1 | 6 | 4442 | 3 | 2.9 | -12 | 19 | 3
O=C(Nc1nc2c(s1)CCCC2)c1cc(-c2ccccc2)nc2ccccc12 | -6 | 2609 | -8 | -8.3 | 5 | 1 | 1
Cc1cccc(OCCCC(=O)Nc2nc3ccccc3[nH]2)c1 | 4 | 4297 | -31 | -5.1 | 1 | -13 | 12
O=C(OCCN(CCOC(=O)c1ccncc1)S(=O)(=O)c1cccs1)c1ccncc1 | -12 | 2833 | -22 | -12 | -13 | 6 | 12
Cc1nn(-c2ccc(Cl)cc2Cl)c(=O)c2ccccc12 | 3 | 9264 | -4 | -0.8 | 9 | 4 | 0
CC(=O)N1CCOc2ccc(S(=O)(=O)NCCc3ccc(S(N)(=O)=O)cc3)cc21 | 10 | 4472 | -20 | 2.7 | 1 | 6 | 1
COc1cccc(NC(=O)CN(C)C(=O)CC(C)c2ccccc2)c1 (stereo not drawn) | 6 | 4958 | -19 | 0.2 | -4 | 2 | -4
CC(C)C(NC(=O)c1ccc(F)cc1)C(=O)N1CCN(C(=O)c2ccco2)CC1 (stereo not drawn) | -3 | 6493 | -14 | -3.0 | · | -2 | 5

New compounds follow:
SMILES | ugtP null kill | Autofluor counter | PrP 5UTR inh | RN4220 kill | BJeLR viability | Mtb hypoxia rep | Mtb hypoxia rep growth
Cc1ccc(C)c(SCC(=O)NNC(=O)c2ccccc2)c1 | 5 | 5004 | -1 | 2.4 | 6 | 16 | 11
C1COCCNCCOCCOCCOCCN1 | 0 | 2135 | 11 | 3.6 | -4 | 4 | 10
Cc1ccc2nc(-c3ccccc3)nc(SC(C)C(=O)NCc3cccs3)c2c1 (stereo not drawn) | 6 | · | · | -1.3 | -11 | 5 | 1
O=C(COc1ccc(F)cc1)NCCNC(=O)COc1ccc(F)cc1 | 2 | 3344 | -3 | 2.7 | · | 1 | -1
Cn1c2c(c(=O)n(C)c1=O)CN(CCN1CCNCC1)CN2 | 1 | ? | 3 | 6.1 | -7 | 2 | 0
Cc1cc(=O)c(C(=O)Nc2cccc(N3CCCC3=O)c2)nn1-c1ccccc1F | 8 | 8529 | -8 | 2.2 | · | 6 | 5
COc1cc(C(=O)COC(=O)c2c(C)noc2C)cc(OC)c1OC | 2 | · | -6 | 3.9 | · | 1 | 3
CNC(=S)Nc1cc(C(=O)N2CCCC2)ccc1N1CCCC1 | -2 | 3853 | -21 | 8.8 | -6 | 15 | 5
O=C(Nc1nc2c(s1)CCCC2)c1cc2n(n1)C(C(F)(F)F)CC(C1CC1)N2 (stereo not drawn) | 4 | 4310 | -42 | 0.5 | -3 | 4 | 6
Cc1ccc(CNC(=O)CNC(=O)c2c(C)nn(C)c2Cl)cc1 | 2 | 3198 | 4 | 5.7 | 7 | 2 | -4
CC(=O)c1ccc(NC(=O)c2ccc([N+](=O)[O-])o2)cc1 | 66 | 3894 | -24 | 26 | -3 | 73* | 43*
O=C(Nc1ccc2snnc2c1)Nc1cccc2ccccc12 | 28 | 2292 | -13 | 41 | 11 | 9 | 10
C=CCNc1nc(NCC)nc(N2CCOCC2)n1 | 6 | 5619 | 1 | -2.3 | 1 | · | ·
COc1ccc(S(=O)(=O)N2CCCCCC2)cc1NC(=O)Cc1ccccc1 | 1 | 5020 | -24 | 20 | 0 | 12 | 9
Oc1ccccc1C=Nn1cnn(Cc2ccccc2Cl)c1=S | -2 | · | · | -3.1 | · | 7 | -11
COc1ccccc1NS(=O)(=O)c1ccc(C(=O)NCC(c2ccccc2OC)N2CCCC2)cc1 (stereo not drawn) | 1 | 13517 | -16 | -0.1 | · | 6 | 35
O=C(O)c1ccc(N/N=C/C2=C(N3CCOCC3)C(=C\c3ccccc3)/CC2)cc1 | · | 3446 | -19 | · | 10 | · | ·
O=C(Nc1ccc2c(c1)OCO2)c1cnn2c(C(F)(F)F)cc(-c3ccco3)nc12 | 5 | 4046 | 2 | 0.0 | · | · | ·
CC(C)C[C@H]1CN=C(Nc2ccccc2)N1CCC(C)c1ccccc1 (stereo partly drawn) | -10 | 3798 | -14 | 11 | · | 2 | 7
CN(C)c1ccc(N/C=C/C(=O)C(F)(F)F)cc1 | -4 | 3473 | -41 | 5.4 | 1 | 4 | -7
CCN(CC)C(=O)CSc1nc2cc3c(cc2c(=O)n1Cc1ccc2c(c1)OCO2)OCO3 | -6 | 5840 | -10 | 0.3 | 1 | 9 | 8
O=C(NCCN1CCNC1=O)C1CCC(=O)N(Cc2ccccc2F)C1 (stereo not drawn) | -8 | 5705 | -2 | -5.5 | 2 | -3 | -2
CCOc1ccc(S(=O)(=O)NCc2cccs2)cc1 | 5 | 11352 | -59 | 6.7 | -10 | 10 | 17
CCOC(=O)c1c(C)[nH]c(C(=O)OCC(=O)N(C)CC(=O)Nc2ccccc2Cl)c1C | · | ? | -22 | · | -8 | · | ·
Cc1c(C2OC(=O)C3(CCCCC3)C(=O)C2(C)C)c(=O)n(-c2ccccc2)n1C (stereo not drawn) | -9 | 9679 | -19 | 4.9 | 11 | 1 | 9

Single records (already shown). Order of values: ugtP null kill, Autofluor counter, PrP 5UTR inh, RN4220 kill, BJeLR viability, Mtb hypoxia rep, Mtb hypoxia rep growth
Record of O=C(O)c1ccc(N/N=C/C2=C(N3CCOCC3)C(=C\c3ccccc3)/CC2)cc1 → ·, 3446, -19, ·, 10, ·, ·
Record of Cc1ccc(C)c(SCC(=O)NNC(=O)c2ccccc2)c1 → 5, 5004, -1, 2.4, 6, 16, 11

Next part:
SMILES | ugtP null kill | Autofluor counter | PrP 5UTR inh | RN4220 kill | BJeLR viability | Mtb hypoxia rep | Mtb hypoxia rep growth
C=CCOC(=O)Nc1ccc(Cl)cc1NC(=O)OCC=C | 4 | 10179 | -16 | 3.7 | -5 | 3 | 3
COc1ccc(N2C(=O)CC(N(CCc3ccc(OC)c(OC)c3)C(=S)Nc3ccccc3)C2=O)cc1 (stereo not drawn) | 5 | 2480 | -85 | 5.1 | 5 | 11 | -1
O=C(COC(=O)Cn1cnc2ccccc21)NCc1ccc(F)cc1 | 4 | 4068 | -17 | 6.4 | -1 | 12 | 4
O=C(CCN1C(=O)/C(=C\C=C\c2ccccc2)SC1=S)Nc1cccc(C(=O)O)c1 | 7 | ? | -23 | 9.0 | -9 | 16 | 6
COc1cc(C=NNC(=O)c2ccc3c(c2)OCCO3)c(Br)c(Br)c1O | -15 | · | · | -1.9 | · | -8 | -6
O=C(Cc1ccc(-c2ccccc2)cc1)N1CCOCC1 | 11 | 3610 | -28 | 0.9 | 0 | · | ·
COc1cc(Cl)c(S(=O)(=O)NCc2cccnc2)cc1Cl | -3 | 12304 | -21 | 2.2 | 2 | 9 | 10
O=C(C1=NNCC1c1ccccc1)C1OC1c1ccccc1 (stereo not drawn) | 3 | 4596 | -14 | 0.7 | -5 | 13 | 0
Nn1c(SCC(=O)Nc2nccs2)nnc1-c1ccccn1 | 3 | 6480 | -21 | 2.4 | 0 | 9 | -4
CCOc1cccc(C2C(C(=O)c3ccc(C)o3)=C(O)C(=O)N2c2nccs2)c1 (stereo not drawn) | 2 | 4688 | -34 | 1.7 | -5 | · | ·
CC1CN(C(C)CO)C(=O)Cc2cc(NC(=O)Nc3cccc4ccccc34)ccc2OC1CN(C)Cc1ccc(C(F)(F)F)cc1 (stereo not drawn) | -6 | · | · | -5.2 | · | 15 | 8
COc1cc(C=NNc2ccc([N+](=O)[O-])cn2)cc(OC)c1O | 11 | · | · | -0.5 | · | -5 | 2
Nn1c(-c2cccs2)nc2sc3c(c2c1=O)CCCC3 | -15 | 3692 | -106 | 3.9 | -3 | -2 | 4
CC1CCCN(c2ccc(C(=O)NCCc3ccccc3)cn2)C1 (stereo not drawn) | 8 | 7497 | -143 | -4.4 | -2 | 6 | 2
CCOC(=O)CC1C(=O)NCCN1S(=O)(=O)c1cc(Cl)c(Cl)cc1Cl (stereo not drawn) | -4 | 9968 | -16 | 3.1 | 6 | -77 | -12
O=[N+]([O-])c1ccc(C[n+]2c(-c3ccccc3)cc(-c3ccccc3)cc2-c2ccccc2)cc1 | -24 | 4569 | 1 | -7.3 | -7 | · | ·
CN1c2ccccc2C(C)(C)[C@]12C=Cc1cc(O)ccc1O2 | -6 | 2843 | -13 | -7.9 | -3 | 11 | 1
CCCCc1cn([C@@H](CCCCN)C(=O)N2CCNCC2)nn1 | · | 4378 | -19 | · | -3 | · | ·
CC(C)Cn1c(N)cc(=O)n(C)c1=O | 5 | 4324 | -10 | -1.6 | 11 | 6 | 17
Cc1ccnc(NC(=O)CCS(=O)(=O)c2ccccc2)c1 | 3 | 6507 | -15 | 4.1 | 14 | 10 | -2
CSc1nc2nc(-c3ccccc3)cc(=O)n2[nH]1 | -10 | 2379 | -106 | -12 | 11 | 5 | 17
CN1N=C(C(=O)N2CCCC(Nc3ccc(F)c(F)c3)C2)CCC1=O (stereo not drawn) | -5 | 5563 | -22 | 3.2 | 0 | 10 | -13

Single entries from the list:
`O=C(Cc1ccc(-c2ccccc2)cc1)N1CCOCC1` in ugtP null kill is listed with 11
`CN(C)c1ccc(N/C=C/C(=O)C(F)(F)F)cc1` in PrP 5UTR inh is listed with -41

Three compounds from above, sorted by heavy-atom count, highest first.
SMILES | ugtP null kill | Autofluor counter | PrP 5UTR inh | RN4220 kill | BJeLR viability | Mtb hypoxia rep | Mtb hypoxia rep growth
O=C(CCc1ccc(S(=O)(=O)N2CCOCC2)cc1)Nc1cc(Cl)ccc1N1CCOCC1 | -3 | 3263 | -24 | -17 | 7 | 6 | 8
CC(=O)c1ccc(NC(=O)c2ccc([N+](=O)[O-])o2)cc1 | 66 | 3894 | -24 | 26 | -3 | 73* | 43*
C1COCCNCCOCCOCCOCCN1 | 0 | 2135 | 11 | 3.6 | -4 | 4 | 10

Screening data deposited in PubChem BioAssay by several laboratories.
